High-throughput results: PubChem BioAssay, National Center for Advancing Translational Sciences (NCATS)
AmpC inh no det: Promiscuous and Specific Inhibitors of AmpC Beta-Lactamase (assay without detergent). AmpC nitrocefin hydrolysis, absorbance 480 nm, no detergent; potencies from a single point are estimates. Potency, µM (series often up to 28.7 µM), for the others: at the highest dose activity change, negative = inhibition. hit rate 1.8% among 71,000. AID 585, 2007; active = falling curve, for most hits resting on a single point; inconclusive = weak or doubtful change; inactive = flat or rising curve; also: % of control where 0% means no effect; about half of the hits show no inhibition at the top dose; a quarter of the inactives give rising signals
Target sequence (P00811 whole entry, looked up): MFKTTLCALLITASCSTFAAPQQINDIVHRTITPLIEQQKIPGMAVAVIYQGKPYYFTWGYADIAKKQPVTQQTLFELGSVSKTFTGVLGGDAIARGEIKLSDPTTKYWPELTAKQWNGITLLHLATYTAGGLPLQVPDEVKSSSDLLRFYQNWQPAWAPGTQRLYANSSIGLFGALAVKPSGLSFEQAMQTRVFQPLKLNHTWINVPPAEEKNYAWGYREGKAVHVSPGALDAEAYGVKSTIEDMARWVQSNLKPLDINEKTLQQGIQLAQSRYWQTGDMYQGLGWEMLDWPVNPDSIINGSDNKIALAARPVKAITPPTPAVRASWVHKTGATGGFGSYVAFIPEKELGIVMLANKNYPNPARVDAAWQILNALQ
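AmpC in 20 mM phosphate buffer pH 7.0 was preincubated 15 min at room temperature with compounds. Nitrocefin (800 uM stock) was then added and hydrolysis followed at 480 nm every 20 s for 4 min.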
* = called active by the depositor; u = inconclusive; & = joins results of further samples; [ ] = remark or other dose. Potency is read from the fitted curve at half-maximal effect. Not all compounds are listed (hit frequency here may not be typical).

SMILES | AmpC inh no det
O=C(NCC1CCCO1)c1ccc(COc2ccc(F)cc2)o1 (stereo not drawn) | 32%
Cc1cc(N2C(=O)C3CCCN3C2c2ccccc2)no1 (stereo not drawn) | -5%
CCOC(=O)C1=C(C)Nc2nc(C)nn2C1c1ccc(OCC)c(OC)c1 (stereo not drawn) | -1%
O=C(O)C1C2C=CC(C2)C1C(=O)NCc1ccccn1 (stereo not drawn) | -6%
O=C(Nc1ccc(Cl)cc1)NC1(C(=O)NCCCN2CCOCC2)CCCCC1 | 16%
CCN(C(=O)c1cccs1)c1nnc(-c2ccncc2)s1 | 26%
COC(=O)c1[nH]c2ccc(C)cc2c1NS(=O)(=O)c1ccc(F)cc1 | 2%
COc1ccc(OC)c(C2=Nn3c(nnc3-c3cccc(OC(C)C)c3)SC2)c1 | 75%
Cc1ccc(C2CC(c3cccc(Br)c3)n3nc(N)nc3N2)cc1 (stereo not drawn) | 55%
O=C(CN1CCC(O)(c2ccc3c(c2)OCO3)CC1)N1CCOCC1 | -9%
COC(=O)N1CCC2(CCN(CC(C)C)CC2)CC1 | 4%
CCCCCC(=O)N1CCN(CCN=CC2=C(O)CC(c3ccc(OC)cc3)CC2=O)CC1 (stereo not drawn) | 102%
N#Cc1c(N)nc2c(c1N)CC(=O)N2c1ccccc1-c1ccccc1 | -4%
c1ccc(Cn2c(-c3cccs3)nc3nc4ccccc4nc32)cc1 | 33%
CN(Cc1ccccc1)Cc1nc2c([nH]1)c(=O)n(C)c(=O)n2C | -3%
CNC(C(=O)c1ccccc1)C(OC)c1ccccc1 (stereo not drawn) | -12%
CC1Cc2nc(SCC(=O)N3CCc4ccccc43)n(C)c(=O)c2S1 (stereo not drawn) | 93%
Cn1c(=O)cc(OCCCC(=O)NCc2ccco2)c2ccccc21 | 29%
FC(F)(F)c1ccc(-n2ccnc2)nc1 | -14%
Cn1c(=O)c2c(nc(NCCCN3CCOCC3)n2Cc2cccc(Cl)c2)n(C)c1=O | 48%
CCCCOC(=O)C1[C@H]2C(=O)N(Cc3cccs3)C[C@]23C=C[C@H]1O3 (stereo partly drawn) | -2%
CCC(C)C(NC(=O)C1CCC(C)CC1)C(=O)NC(C(=O)OC)C(C)C (stereo not drawn) | -9%
COc1cc(NS(=O)(=O)c2ccc(NC(=O)COc3ccccc3Cl)cc2)nc(OC)n1 | -17%
COC(=O)[C@@]1(Cc2ccccc2)[C@H]2c3cc(C(=O)N(C)C)n(Cc4ccc(O)c(OC)c4)c3C[C@H]2CN1C(=O)c1ccccc1 | 188%
Cc1cc(NC(=O)c2cncc(Br)c2)n(-c2ccccn2)n1 | 59%
Nc1nnc(N2CCc3ccccc32)s1 | u
Cc1cc(C)c(S(=O)(=O)N(C)CC(=O)N2CCCCC2)c(C)c1 | 34%
Cc1cc(C(=O)OCC(=O)Nc2cc(C(F)(F)F)ccc2N2CCOCC2)c(C)o1 | 48%
Cc1cc(C)nc(N2CCN(c3nc(C)nc4c3oc3ccccc34)CC2)n1 | 3%
Oc1c(C(c2ccccc2)N2CCN(Cc3ccccc3)CC2)sc2ncnn12 (stereo not drawn) | 118%
CN=C(NC#N)SCC(=O)c1ccc(Cl)cc1Cl | 4%
Cc1ccc2nc(/C(C#N)=N/O)[nH]c2c1 | -12%
O=C(C1CC1)N1CCN=C1SCc1cccc(F)c1 | 21%
Cc1ccc(Nc2nc(C3CC3)cs2)cc1 | -14%
Cc1ccc(C(=O)c2ccc(CC(=O)O)n2C)cc1 | -12%[12.8 µM]
N#CC1=C(SCC(=O)NC2CCCCC2)NC(=O)CC1c1ccco1 (stereo not drawn) | -10%
c1ccc2c(Nc3ccncc3)nc(-c3ccc4c(c3)OCO4)nc2c1 | 44%
CCN(CC)C(=O)Oc1ccc(NC(C)=O)cc1 | 24%
Cc1ccc(-n2ncc3c(N4CCN(c5ccc(F)cc5)CC4)ncnc32)c(C)c1 | 41%
O=C(Cn1cnc2c(nnn2Cc2ccc(F)cc2)c1=O)NCc1ccco1 | -4%
N#CCCSCc1ccc2oc(C(=O)O)cc2c1 | 18%
CC(=O)c1ccc(N2CCN(C(=O)C3CCN(S(=O)(=O)Cc4ccccc4)CC3)CC2)cc1 | 80%
CCCc1[nH]nc2c1C1(C(=O)N(C(C)C)c3ccccc31)C(C#N)=C(N)O2 (stereo not drawn) | 17%
COCCn1c(SCc2nnc(-c3ccccc3)o2)nc2sc3c(c2c1=O)CCC3 | 110%
C/C(=C\[C@@H](NP(=O)(c1ccccc1)c1ccccc1)c1ccccc1)CO[Si](c1ccccc1)(c1ccccc1)C(C)(C)C | 5%
COc1cccc(-c2nc(CS(=O)(=O)CC(=O)N3CCN(C)CC3)c(C)o2)c1 | 37%
CC(C)C(=O)c1c(C(C)C)nn2ccccc12 | 14%&17%
COc1ncc2ncc(=O)n(C)c2n1 | 2%
O=C(O)C(=Cc1ccc(-c2ccccc2)cc1)C(=O)O | 5%[5.75 µM]
O=C(CSCC(=O)N1CCCCC1)OCC(=O)c1c[nH]c2ccccc12 | 9%
NCCNC(=O)c1ccc(Cl)cc1 | 0%&7%
CCc1c(O)nc(SCC(=O)N2CCCCC2)n(-c2ccccc2C)c1=O | 3%
Cc1ccc(-n2c(SCC(=O)OC(C)C)nnc2-c2ccccn2)cc1 | 62%
O=C(Cn1ccsc1=NC(=O)c1ccco1)c1ccccc1 | 1%
COc1ccccc1Nc1nc(C)cc(C)c1C(N)=O | 5%
COc1ccc(NC(=O)CC2SC(=Nc3ccccc3)NC2=O)c(OC)c1 (stereo not drawn) | 19%
CN1C[C@H](C(=O)N[C@]2(C)O[C@@]3(O)[C@H]4CCCN4C(=O)[C@H](Cc4ccccc4)N3C2=O)C[C@H]2c3cccc4[nH]cc(c34)C[C@@H]21 | 133%
C=CC1=C(C)C2=Cc3c(C=C)c(C)c4[n]3[Sn+2][n]3c(c(C)c(CCC(=O)O)c3=CC3=NC(=C4)C(C)=C3CCC(=O)O)=CC1=N2 | 21%
CC(=O)Nc1nc2ccccc2n1CCN1CCOCC1 | -6%
CCOC(=O)Cn1nnnc1C(CC)N(Cc1cccs1)Cc1cc2ccc(OC)cc2[nH]c1=O (stereo not drawn) | 98%

A second format for some results above:
canonical_smiles	AmpC inh no det
CC1Cc2nc(SCC(=O)N3CCc4ccccc43)n(C)c(=O)c2S1 (stereo not drawn)	93%
Cn1c(=O)cc(OCCCC(=O)NCc2ccco2)c2ccccc21	29%
FC(F)(F)c1ccc(-n2ccnc2)nc1	-14%
Cn1c(=O)c2c(nc(NCCCN3CCOCC3)n2Cc2cccc(Cl)c2)n(C)c1=O	48%

Sorted by number of heavy atoms (falling): part of the list above
SMILES | AmpC inh no det
CN1C[C@H](C(=O)N[C@]2(C)O[C@@]3(O)[C@H]4CCCN4C(=O)[C@H](Cc4ccccc4)N3C2=O)C[C@H]2c3cccc4[nH]cc(c34)C[C@@H]21 | 133%
CCc1c(O)nc(SCC(=O)N2CCCCC2)n(-c2ccccc2C)c1=O | 3%
O=C(CSCC(=O)N1CCCCC1)OCC(=O)c1c[nH]c2ccccc12 | 9%
O=C(Cn1ccsc1=NC(=O)c1ccco1)c1ccccc1 | 1%
O=C(O)C(=Cc1ccc(-c2ccccc2)cc1)C(=O)O | 5%[5.75 µM]
COc1ncc2ncc(=O)n(C)c2n1 | 2%
NCCNC(=O)c1ccc(Cl)cc1 | 0%&7%

(next part)
SMILES | AmpC inh no det
C=CCn1c(CNC(=O)c2ccccc2C)nnc1SCC(=O)NC1CCCC1 | 5%
O=C(CCSc1ccccc1)NC1CCCC1 | 14%
CC(=O)C1C(c2ccc(F)c(F)c2)NC(=O)NC1(O)C(F)(F)F (stereo not drawn) | -9%
O=C(CCCc1nc(-c2ccc(Cl)cc2)no1)Nc1cccnc1 | 16%
COc1cc2c(cc1OC)-c1c(O)c(OC)cc3c1[C@@H](C2)N(C)CC3 | 19%
O=C(Cn1cc2c(n1)CCCC2)NCCCN1CCN(c2ccccc2F)CC1 | 68%
CC(=O)N[C@@H](CC(C)C)C(=O)O | 4%[12.8 µM]
CCCc1ccc(OCc2ccc(C(=O)N3CCN(c4ccccn4)CC3)o2)c(OC)c1 | 125%
Cc1ccc2c(c1)c(C)c(C)n2CC(O)CN1CCOCC1 (stereo not drawn) | 109%
CC1CCN(C(=O)CSc2nnc(CSc3ncccn3)n2C)CC1 | 2%
Cc1ccc(NC(=O)CSc2n[nH]c(-c3ccncc3)n2)cc1C | -11%&-3%
COc1ccccc1CN1CC2(CCN(S(=O)(=O)c3ccccc3)CC2)C1 | 17%
CCOC(=O)N1CCC(NC(=O)Cn2c3ccccc3c3cn[nH]c(=O)c32)CC1 | -2%
N#Cc1ccccc1OC[C@H](O)CNCCNC(=O)Nc1ccccc1 | 20%
CN1CC(=O)N(CC(=O)Nc2ccc(F)cc2)c2ccccc2C1=O | 0%
CCC(C)[C@H](NC(=O)NCC1CCCO1)C(=O)OC (stereo partly drawn) | 1%
CCN(CC)CCCN1C(=O)C(=O)/C(=C(/O)c2ccc3c(c2)OCCO3)C1c1ccco1 (stereo not drawn) | 1%
O=C(CCc1nc2ccccc2[nH]1)Nc1ccc2c(c1)OCO2 | -21%
Cc1nnc(NC(=O)CSc2nnc(Cc3cccn3C)n2CCc2ccccc2)s1 | 76%
CCOC(=O)C1CCN(C(=O)CNS(=O)(=O)c2ccc(Br)s2)CC1 | 30%
CC1CCc2c(C(=O)Oc3cccc(-n4cnnn4)c3)csc2C1 (stereo not drawn) | 16%
COc1ccc(Cl)cc1NC(=O)CN(c1ccccc1)S(=O)(=O)N(C)C | 28%
Cc1csc(SCC(=O)N2CCN(S(=O)(=O)c3ccc(Cl)cc3)CC2)n1 | 53%
O=C(Nc1ccc(-n2nncc2-c2ccco2)cc1)c1cccc(F)c1 | -19%
CC(=O)c1cccc(NC(=O)Cn2cc3c(n2)CCCC3)c1 | 0%
COC(=O)c1ccc(OCC(O)Cn2nnc3ccccc32)cc1 (stereo not drawn) | 6%
COc1ccc(C(=O)CSc2nnc(CNc3ccc(C)cc3C)n2Cc2ccco2)cc1 | 31%
COC(=O)[C@@H]1C[C@H]1[C@@H](NC(C)=O)c1ccccc1 | -4%
O=C(CN1CCC(n2nnc3cc(F)ccc32)CC1)N1CCCc2ccccc21 | 81%
O=C(O)CCC(=O)N1CCc2cc(S(=O)(=O)N3CC=C(c4ccccc4)CC3)ccc21 | 50%
Cc1cccc(N(CC(=O)NC2CCCC2)C(=O)CCCC(=O)Nc2ccccn2)c1 | 37%
O=C(Nc1ccccc1C(F)(F)F)N1CCC(N2CCCCC2)CC1 | -5%
O=C1C(Cl)=C(Cl)C(=O)C(Cl)=C1Cl | 13µM*
CCc1noc(C)c1C(=O)N1CC(C)OC(C)C1 (stereo not drawn) | -6%
CC1(C)Oc2ccc(C(=O)N3CCCC3)cc2N(CC(=O)NCc2ccccc2)C1=O | 10%
CC1(C)Cc2c(c(N3CCCC3)nc3sc4c(N5CCN(CCO)CC5)ncnc4c23)CO1 | u
CCC(C)NC(=O)C1c2cc(OC)c(OC)cc2C(=O)N(C)C1c1ccc(OC)cc1 (stereo not drawn) | 27%
Cc1ccc(NC(=O)c2cnccn2)c(OC(F)F)c1 | 12%
O=S(=O)(C[C@H](O)C(Cl)(Cl)Cl)NNc1ccccc1 | -7%[5.75 µM]
CN(O)/C=c1/ccc2c(n1)C(=O)C=CC=2 | -4%
CCCCn1c(=NC(=O)c2ccco2)c(C(=O)OCC)cc2c(=O)n3ccccc3nc21 | 46%
COC(=O)c1ccc(CN(c2ccc(C)cc2)S(=O)(=O)c2ccc3c(c2)OCCO3)o1 | 4%
CCCN1C=CC(=C2C(=O)c3ccccc3C2=O)C=C1 | -4%
CS(=O)(=O)Nc1cccc(-c2cc(NCc3ccccc3)ncn2)c1 | 16%
O=C(CSc1nc2ccccc2o1)N1CCN(c2ccc(Cl)cc2)CC1 | -10%
Cc1cc(C)nc(SCc2n[nH]c(=S)n2C)n1 | -1%
Cc1cccc(-c2noc(CN(C(=O)C34CC5CC(CC(C5)C3)C4)C(C)C)n2)c1 | 33%
CCC(C(=O)Nc1nnc(-c2ccco2)s1)c1ccccc1 (stereo not drawn) | -10%
CCOC(=O)c1[nH]c(=O)[nH]c1CSCCO | -4%
CN1C(=O)/C(=C2/C=CC=CN2C)OC1=S | -3%
CCc1nnc(NC(=O)CSc2nccn2-c2ccccc2)s1 | 11%
COC(=O)c1sc(S(=O)(=O)NCc2cccs2)c(C(=O)OC)c1C | -2%
CCN(C)c1ccc(/C=N\n2nnnc2N)cc1 | -2%
COc1ccc(S(=O)(=O)N(CC(=O)Nc2cc(C)on2)Cc2ccccc2)cc1 | -4%
Nc1nc2ccc(S(=O)(=O)c3ccc4nc(N)sc4c3)cc2s1 | 13µM*
CN(Cc1ccccc1)C(=O)CCC(=O)N(C)Cc1ccccc1 | 39%
Cc1ccccc1CN1CCNC(=O)C1CC(=O)O (stereo not drawn) | 1%
COc1cccc(N2C(=O)C(CC(=O)Nc3ccccc3)N(C3CCCCC3)C2=O)c1 (stereo not drawn) | 35%
O=C(CCCn1c(=S)[nH]c2ccccc2c1=O)NC1CCCC1 | -2%
Cc1ccccc1Cn1nc(C)c(NC(=O)c2cc3nc(-c4ccco4)cc(C(F)(F)F)n3n2)c1C | 132%

Next part:
SMILES | AmpC inh no det
Cc1ccccc1Cn1nc(C)c(NC(=O)c2noc3c2CCCC3)c1C | 80%
CCn1c(SCC(=O)Nc2ccc3c(c2)OCCO3)nc2c(c1=O)SC(C)C2 (stereo not drawn) | 9%
O=C(Nc1ccc(Br)c(Cl)c1)C1CC1 | -9%
CC(C)CNS(=O)(=O)c1ccc(CCC(=O)NCc2ccco2)cc1 | -2%
